HSD17B inhib – HSD17B dehydrogenase inhibition; hit rate 7.6% among 75,000; Q99714; AID 893; recombinant HSD17B10, NADH fluorescence kinetic; many of its hits are not listed in these tables; Potency, µM (doses to about 57.1 µM), inactives show at the top dose activity change, negative = inhibition, actives largely listed as inhibitors; active = well fitted inhibition curve with a large enough effect; inconclusive = small, poorly fitted or top-dose-only effect; inactive = no such curve, though single readings can be large or run the other way;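 note: the protocol describes HADH2 (HSD17B10) and not the HSD17B4 of the title; nearly all actives have a fitted effect of over 70% in size; most hits overshoot -100% by far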
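20 nM HADH2, pH 9.0 Tris/Tween; cpd preinc 15 min RT; start w/ 1 mM NAD+ + 90 uM b-hydroxybutyryl-CoA; kinetic fluor ex360/em450 q30s x 4 min; delta last-first.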
The depositor's hits bear a star; ? = inconclusive; & = joins results of further samples; [ ] = remark or other dose. % is set by controls: 0 for no effect and ±100 for the full control effect; potency is the fitted concentration of half-maximal effect.

Structure	HSD17B inhib
CCOC(=O)Cn1c(=N)n(Cc2ccccc2F)c2ccccc21	5%
C[N+]1(C)CCc2cc3c(cc2[C@@H]1[C@@H]1C(=O)Oc2c1ccc1c2OCO1)OCO3	6%&3%
O=C1CC(N2CCN(c3nc4ccccc4s3)CC2)C(=O)N1Cc1cccs1 (centres undefined)	-19%
Oc1c(CN2CCOCC2)ccc(CN2CCOCC2)c1O	-11%[11.4 µM]
CN1CCN(c2cc(=O)n(-c3ccc(Cl)cc3)c(=O)[nH]2)CC1	-6%
COc1ccc(NC(=O)CSc2nnc(CN3CCOCC3)n2-c2ccccc2)cc1Cl	-4%
O=C(NC1CCCc2ccccc21)C1CCN(S(=O)(=O)N2CCCCCC2)CC1 (centres undefined)	1%
CC1(C)CC(=O)c2c(O)cc(O)cc2O1	-1%
COC(=O)c1ccccc1NC(=O)c1cnn2c(C(F)F)cc(C3CC3)nc12	?
CCOC(=O)c1nnn(-c2nonc2-n2cccc2)c1CN1CCC(C)CC1	-16%
CCOC(=O)c1[nH]c(=O)[nH]c1COC(=O)c1cc2ccccc2o1	2%
CC1(C(=O)NCCc2c[nH]c3ccccc23)C=CCN1C(=O)c1ccccc1 (centres undefined)	1%
Cc1c(C(=O)OCC(=O)c2ccc3c(c2)OCCO3)oc2ccccc12	-5%
CCOC(=O)N1CCC(NC(=O)Cn2c3c(c(-c4ccccc4Cl)cc2=O)CCC3)CC1	25µM*
COC(=O)[C@@]1(Cc2ccc(F)cc2)[C@H]2c3cc(C(=O)N4CCCC4)n(CCc4ccc(OC)c(Br)c4)c3C[C@H]2CN1C(=O)c1ccccc1	18%
CCOC(=O)c1c(C)[nH]c(C(=O)COC(=O)c2cnc(C)cn2)c1C	-3%
CC(=O)N1CCN(C(=O)CCc2c[nH]c3ccccc23)CC1	-2%
CC(C)(C)OC(=O)N1CCOCCOCCN(C(=O)OC(C)(C)C)CCOCC1	10%
CCn1c(COc2ccccc2)nnc1SCC(=O)Nc1cc(OC)ccc1OC	2%
O=C(NCc1ccccn1)c1ccc(Cl)cc1Cl	3%
Cc1cc(NC(=O)c2cnn3cccnc23)n(-c2ccccc2)n1	5%
Cc1cc(C)cc(-c2nnc(SCC(=O)NCc3cccs3)o2)c1	-2%
CCCCOc1ccc(NC(=O)CN2CCN(C(=O)OCC)CC2)cc1	0%
O=C(O)c1ccccc1C(=O)OCc1ccccc1	1%
Clc1ccccc1C(Nc1cnccn1)Nc1cnccn1	4µM*
COc1ccc(N2C(=O)CC(Cc3ccccc3)C2=O)cc1 (centres undefined)	15%
COC(=O)C(C)Sc1nnc(Cc2cc(=O)[nH]c(=O)[nH]2)n1-c1ccc(Cl)cc1 (centres undefined)	8%
O=C(Nc1cccc(Cl)c1)C1CCCN(S(=O)(=O)c2cnc[nH]2)C1 (centres undefined)	2%
CCOc1ccc(NCCC(=O)c2ccc3c(c2)OCO3)cc1	-15%
CSc1nnnn1CCn1nnnc1SC	7%
COc1ccccc1N1CCN(CCc2n[nH]c(=S)n2-c2ccccc2)CC1	-9%
COc1ccc(C)cc1C(=O)C1CC(C(=O)O)C(C)(C)C1C (centres undefined)	7%
O=C1CCCC2=C1C1(CCCC1)N=C(Nc1nc3ccccc3o1)N2	8%
Cc1cc(-n2c(C)cc(C(=O)CN3C(=O)NC4(CCCCC4C)C3=O)c2C)no1 (centres undefined)	13%
COc1ccc(S(=O)(=O)N2CCC(n3cnc4cc(C(F)(F)F)ccc43)CC2)cc1	-4%
COc1cccc(-c2nc(CS(=O)CC(=O)NCCCOC(C)C)c(C)o2)c1 (centres undefined)	-12%
CCCS(=O)(=O)N1CCCC(C(=O)NCCc2ccc(OC)c(OC)c2)C1 (centres undefined)	12%
Cc1ccc(N(C(=O)c2ccc3c(c2)OCO3)C2C=CS(=O)(=O)C2)cc1 (centres undefined)	-4%
NC(N)=[N+]1CCc2ccccc2C1	2%
CCOC(=O)Cc1csc(NC(=O)COc2ccc(OC)cc2)n1	-6%
O=C(O)CN(c1ccccc1F)S(=O)(=O)c1ccccc1	5%
Cn1c(=O)n(CC(=O)N2CCOCC2)c2ccccc21	4%
Cc1ccc2c(c1)N(CC(=O)c1cccc(Cl)c1)C(=O)C(C)O2 (centres undefined)	-4%
CCc1nc(SCC(=O)Nc2cc(C)on2)c2c(C)c(C)sc2n1	-2%
Cc1ccccc1-n1nnnc1-c1ccccc1	-5%
Cc1cc(OCC(=O)Nc2ccc(S(=O)(=O)N3CCN(C)CC3)cc2)cc(C)c1Cl	-2%
COc1ccc2cc(C(c3nnnn3Cc3ccc(F)cc3)N3CCCCCC3)c(=O)[nH]c2c1 (centres undefined)	-1%
Cc1ccc(-c2nnn(CC(=O)N(c3cccc(F)c3)C(C(=O)NC3CCCC3)c3ccco3)n2)o1 (centres undefined)	-10%
CCOc1ccc(CCNC(=O)C2CCCN(c3nn4c(=O)cc(C)nc4s3)C2)cc1OCC (centres undefined)	7%
O=C(CCSc1ccccc1)NCCN1CCOCC1	-5%

Other compounds
Structure	HSD17B inhib
CCOc1ccc(N(CC(=O)NC(C)(C)C)S(=O)(=O)c2c(C)noc2C)cc1	5%
Cc1ccccc1N1C(=O)N(c2cccc(C(F)(F)F)c2)C2CS(=O)(=O)CC21 (centres undefined)	13%
Cc1ccc(C=Nc2ccc(N(C)C)cc2)o1	-9%
Cc1oc(-c2ccccc2F)nc1CS(=O)(=O)CC(=O)N1CCOCC1	2%
COc1cccc(-c2nnc(NC(=O)c3ccc(S(=O)(=O)N4CCOCC4)cc3)o2)c1	-11%
Nc1[nH]c(=S)[nH]c(=O)c1-c1ccccc1	-2%
COc1ccc(-n2c(COc3ccccc3)nnc2SCc2ccc(C#N)cc2)cc1	0%
O=S(=O)(c1cccs1)N1CN(CC2CCCO2)c2nc3ccccc3nc21 (centres undefined)	?
CCOCCn1cnc2sc(C(=O)Nc3nc(C)c(C(=O)OCC)s3)c(C)c2c1=O	5%
Cc1nnc(C)n1/N=C/c1ccccn1	2%
O=C(O)c1cc(-c2ccc(-c3ccccc3)cc2)nc2cc3ccccc3cc12	?
COc1cc2c(cc1OC)CN(C(=O)CSc1nnc3scc(-c4ccccc4)n13)CC2	0%
O=C(Nc1cccc(C(F)(F)F)c1)c1cccnc1N1CCCC1	-5%
CCn1c(=O)c(C(=O)NCc2ccccn2)c(O)c2ccccc21	4%
CCOc1ccc(CC(=O)Nc2c(C(N)=O)oc3ccccc23)cc1OCC	-10%
COc1cccc(-c2cc(C(=O)NCc3ccco3)no2)c1	-6%
Cc1ccc(OC(=O)c2cccc(C(=O)Oc3ccc(C)cn3)n2)nc1	?
Cc1cc(NC(=O)c2ccc3c(c2)C(=O)N(CCC(C)C)C3=O)no1	9%
O=C(CSc1nc(-c2ccco2)cc(C(F)(F)F)n1)Nc1ccc(C(=O)N2CCCCC2)cc1	-18%
O=C(Nc1cccc(F)c1)N1CC2(CCN(C(=O)c3ccco3)CC2)C1	-16%
CC(=O)N(CC1CCCO1)c1nnc(-c2cnccn2)s1 (centres undefined)	?
NS(=O)(=O)c1ccc(CCNC(=O)CCCC2=NS(=O)(=O)c3ccccc3N2)cc1	14%
COCCNC(=O)Cn1c(=O)n(Cc2ccc(C(=O)NCc3ccco3)cc2)c(=O)c2ccccc21	-16%
Cc1ccc(C)c(/C(O)=C2\C(=O)C(=O)N(Cc3cccnc3)C2c2cccnc2)c1 (centres undefined)	-14%
NC(=O)COC(=O)c1ccc(Oc2ccccc2)cc1	-9%

A run of entries from the list above, as a working copy:
Structure	HSD17B inhib
Cc1ccc2c(c1)N(CC(=O)c1cccc(Cl)c1)C(=O)C(C)O2 (centres undefined)	-4%
CCc1nc(SCC(=O)Nc2cc(C)on2)c2c(C)c(C)sc2n1	-2%
Cc1ccccc1-n1nnnc1-c1ccccc1	-5%
Cc1cc(OCC(=O)Nc2ccc(S(=O)(=O)N3CCN(C)CC3)cc2)cc(C)c1Cl	-2%
COc1ccc2cc(C(c3nnnn3Cc3ccc(F)cc3)N3CCCCCC3)c(=O)[nH]c2c1 (centres undefined)	-1%
Cc1ccc(-c2nnn(CC(=O)N(c3cccc(F)c3)C(C(=O)NC3CCCC3)c3ccco3)n2)o1 (centres undefined)	-10%
CCOc1ccc(CCNC(=O)C2CCCN(c3nn4c(=O)cc(C)nc4s3)C2)cc1OCC (centres undefined)	7%
O=C(CCSc1ccccc1)NCCN1CCOCC1	-5%
CCOc1ccc(N(CC(=O)NC(C)(C)C)S(=O)(=O)c2c(C)noc2C)cc1	5%
Cc1ccccc1N1C(=O)N(c2cccc(C(F)(F)F)c2)C2CS(=O)(=O)CC21 (centres undefined)	13%
Cc1ccc(C=Nc2ccc(N(C)C)cc2)o1	-9%
Cc1oc(-c2ccccc2F)nc1CS(=O)(=O)CC(=O)N1CCOCC1	2%
COc1cccc(-c2nnc(NC(=O)c3ccc(S(=O)(=O)N4CCOCC4)cc3)o2)c1	-11%
Nc1[nH]c(=S)[nH]c(=O)c1-c1ccccc1	-2%
COc1ccc(-n2c(COc3ccccc3)nnc2SCc2ccc(C#N)cc2)cc1	0%
O=S(=O)(c1cccs1)N1CN(CC2CCCO2)c2nc3ccccc3nc21 (centres undefined)	?
CCOCCn1cnc2sc(C(=O)Nc3nc(C)c(C(=O)OCC)s3)c(C)c2c1=O	5%
Cc1nnc(C)n1/N=C/c1ccccn1	2%
O=C(O)c1cc(-c2ccc(-c3ccccc3)cc2)nc2cc3ccccc3cc12	?
COc1cc2c(cc1OC)CN(C(=O)CSc1nnc3scc(-c4ccccc4)n13)CC2	0%
O=C(Nc1cccc(C(F)(F)F)c1)c1cccnc1N1CCCC1	-5%
CCn1c(=O)c(C(=O)NCc2ccccn2)c(O)c2ccccc21	4%
CCOc1ccc(CC(=O)Nc2c(C(N)=O)oc3ccccc23)cc1OCC	-10%
COc1cccc(-c2cc(C(=O)NCc3ccco3)no2)c1	-6%
Cc1ccc(OC(=O)c2cccc(C(=O)Oc3ccc(C)cn3)n2)nc1	?
Cc1cc(NC(=O)c2ccc3c(c2)C(=O)N(CCC(C)C)C3=O)no1	9%
O=C(CSc1nc(-c2ccco2)cc(C(F)(F)F)n1)Nc1ccc(C(=O)N2CCCCC2)cc1	-18%
O=C(Nc1cccc(F)c1)N1CC2(CCN(C(=O)c3ccco3)CC2)C1	-16%
CC(=O)N(CC1CCCO1)c1nnc(-c2cnccn2)s1 (centres undefined)	?
NS(=O)(=O)c1ccc(CCNC(=O)CCCC2=NS(=O)(=O)c3ccccc3N2)cc1	14%

(continued)
Structure	HSD17B inhib
COc1cccc(-c2cncnc2NCc2ccccc2OC)c1	-10%
CN(C)S(=O)(=O)c1cccc(C(=O)N(Cc2ccc(F)cc2)Cc2ccco2)c1	-3%
CCCCCCCC/C=C\CCCCCCCC(=O)N[C@@H](CO)Cc1ccc(O)cc1	0%
COCCn1c(CN2CCN(c3ccccc3)CC2)nc2c1c(=O)n(C)c(=O)n2C	0%
COc1ccc(CNC(=O)Nc2cccs2)cc1OC	-18%
COCCN(CCOC)c1nc(C)nc2c1nc(-c1ccccc1)n2CCN(C)C	32µM*
COc1ccc(OCCCON2C(=O)c3ccccc3C2=O)cc1	10%
O=C(Nc1ccon1)C(Sc1ccccc1)c1ccccc1 (centres undefined)	-7%
CCCOc1ccc(Cc2nc(N)nc(N)n2)cc1	-16%
ONC=Nc1cccc2nonc12	5%
Oc1ccc(CNc2ccc(F)cc2)c2cccnc12	-1%
Clc1ccccc1Nc1ncnc2c1nnn2Cc1ccccc1	28%
COc1ccc(Cl)cc1NC(=O)C1CC(=O)N(c2ccc(F)cc2)C1 (centres undefined)	-2%
COc1ccc(NS(=O)(=O)c2ccc(OC)c(OC)c2)cc1OC	-4%
O=C(CSc1nc(-c2ccco2)cc(C(F)(F)F)n1)Nc1ccc2c(c1)OCO2	-3%
Nc1ncnc2c1ncn2C1CCC(CO)C(O)C1 (centres undefined)	1%
O=C(NCc1ccc(Cl)cc1)c1cc2c(nc3sccn32)s1	20µM*
O=C(CN1CCN(c2ccccc2)CC1)Nc1nccs1	7%
COC(=O)CSc1nnc(-c2ccco2)n1-c1ccc(C)cc1	8%
NC(=O)c1nsc(C(=O)N(CC(=O)NCc2ccc3c(c2)OCO3)C2CCCCC2)c1N	?
COc1ccc(C2CC(=O)c3c(O)cc(O)cc3O2)cc1O (centres undefined)	-7%
CCOC(=O)C(NC(C)=O)(Nc1ccc(S(=O)(=O)Nc2cc(C)nc(C)n2)cc1)C(F)(F)F (centres undefined)	-3%
COc1ccc(C(=O)C(OC(=O)CNC(=O)c2ccco2)c2ccccc2)cc1 (centres undefined)	2%
C=CCc1cccc2cc(C(=O)N(CC)CC)c(=O)oc12	?
CCOc1ccc(-c2nnn(CCC(=O)O)n2)cc1OC	3%

This is a subset; count on the stated rates, not on these rows.
